Cruzain inh noDet = qHTS Assay for Promiscuous and Specific Inhibitors of Cruzain (without detergent); Cruzipain (Trypanosoma cruzi), P25779; purified cruzain, Z-FR-AMC fluorescence, no detergent; Potency, µM, without a hit: max response, negative = inhibition, actives largely listed as inhibitors; 200,000 tested, 2.3% active; AID 1476, 2009; active = well fitted curve in the direction sought with a large enough effect; inconclusive = small, poorly fitted or top-dose-only effect, or another doubt; inactive = no such curve, though single readings can be large; an effect the other way counts as inactive or inconclusive;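 note: plate controls were enzyme without inhibitor for no effect and buffer without enzyme for full effect; nearly all actives have a fitted effect of over 40% in size; top concentration of the series not given in the record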
Target sequence (P25779 123-467 limits assumed): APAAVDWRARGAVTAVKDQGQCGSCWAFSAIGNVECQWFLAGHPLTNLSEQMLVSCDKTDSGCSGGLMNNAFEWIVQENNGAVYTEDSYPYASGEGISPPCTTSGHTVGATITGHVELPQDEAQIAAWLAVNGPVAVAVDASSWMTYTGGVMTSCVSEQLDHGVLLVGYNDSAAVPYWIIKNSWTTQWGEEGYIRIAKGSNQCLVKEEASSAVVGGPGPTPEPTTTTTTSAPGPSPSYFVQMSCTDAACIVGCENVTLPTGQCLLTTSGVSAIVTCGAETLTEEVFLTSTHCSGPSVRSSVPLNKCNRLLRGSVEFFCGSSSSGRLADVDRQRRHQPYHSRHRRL
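Purified cruzain at 1.5 nM, pre-incubated 15 min with compound at room temperature in 100 mM sodium acetate pH 5.5, 5 mM DTT, 0.00005% Triton X-100. Reaction started with 2 uM Z-FR-AMC; AMC fluorescence increase over 60 s gives rate.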
RE007 growth inh = qHTS Assay for Inhibitors of the HIV-1 protein Vpr; AID 651644, 2012; Potency, µM (series often up to 92.2 µM), for inactives: top-dose activity change, negative = less growth; 360,000 tested, 0.21% active; S. pombe RE007 Vpr strain, BacTiter-Glo ATP luminescence, 24 h; control for the full effect not named in the record; active = well fitted falling curve with a large enough effect; inconclusive = small, poorly fitted or top-dose-only effect; inactive = no such curve, though single readings can be large or run the other way;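 note: % is set by controls: 0 for no effect and ±100 for the full control effect; nearly all actives have a fitted effect of over 50% in size; the assay follows cell death caused by Vpr and the record does not say whether a fall means rescue or toxicity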
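Fission yeast strain RE007, carrying one chromosomally integrated HIV-1 vpr copy, was seeded at OD 0.01 in PMG+AL medium with 23 nL pinned compound. After 24 h at 30 °C and 99% humidity, viability was read by BacTiter-Glo luminescence.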
NS1 inh = qHTS Assay for Inhibitors of Influenza NS1 Protein Function; 270,000 tested, 0.4% active; S. cerevisiae slowed by influenza A NS1, growth recovery by OD600; Potency, µM (highest dose often 46.1 µM), for the others: at the top dose activity, positive = more growth; AID 2326, 2010; note: actives are rising curves; nearly all actives have a fitted effect of over 50% in size
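OD600 was taken as the measure of yeast growth restored by compound in an NS1-expressing S. cerevisiae strain. Cells had been washed out of glucose medium and diluted 1:100 into galactose -URA medium, pH 6.0.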
StopGo reporter = High Throughput Screening for Foot and Mouth Disease Virus Antivirals; human cells with a luciferase reporter of 2A StopGo recoding; control for the full effect not named in the record; Potency, µM (series often up to 57.9 µM), inactives show top-dose signal change, negative = less light; 410,000 tested, 1.2% active; active = well fitted falling curve with a large enough effect; inconclusive = small, poorly fitted or top-dose-only effect; inactive = no such curve, though single readings can be large or run the other way; tested in HEK293T cells; note: % is set by controls: 0 for no effect and ±100 for the full control effect; nearly all actives have a fitted effect of over 45% in size; luciferase light after 4 h
Cruzain Triton = qHTS Assay for Promiscuous and Specific Inhibitors of Cruzain (with detergent); purified cruzain, Z-FR-AMC fluorescence, 0.01% Triton; Potency, µM, inactives show max response, negative = inhibition, most hits filed as inhibitors; 200,000 tested, 0.43% active; active = well fitted curve in the direction sought with a large enough effect; inconclusive = small, poorly fitted or top-dose-only effect, or another doubt; inactive = no such curve, though single readings can be large; an effect the other way counts as inactive or inconclusive;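 note: plate controls were neutral wells for no effect and buffer without enzyme for full effect; nearly all actives have a fitted effect of over 40% in size; top concentration of the series not given in the record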
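Purified cruzain (1.5 nM final) was preincubated with compounds for 15 min at room temperature in 100 mM sodium acetate pH 5.5, 5 mM DTT, 0.01% Triton X-100. Reaction started with 2 uM Z-FR-AMC; AMC fluorescence change over 60 s gave activity.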
MARV entry inh = qHTS for inhibitors of binding or entry into cells for Marburg Virus | Marburg virus pseudotyped entry inhibition, cell reporter; control for the full effect not named in the record; about a third of the inactives were read at about 46 µM | 300,000 tested, 1.8% active | Potency, µM (titrated, usually from 37.8 µM), inactives show top-dose activity change, negative = inhibition, actives largely listed as inhibitors | AID 540276, 2011; active = well fitted inhibition curve with a large enough effect; inconclusive = small, poorly fitted or top-dose-only effect, or effect the other way; inactive = flat fitted curve, though single readings scatter; tested in HEK293 cells; about a fifth of its hits are not listed in these tables; note: % is set by controls: 0 for no effect and ±100 for the full control effect; luciferase read-out
SARS PLP yeast = qHTS of Yeast-based Assay for SARS-CoV PLP; S. cerevisiae expressing SARS-CoV PLpro, growth rescue; control for the full effect not named in the record; Potency, µM (doses to about 32.9 µM), for the others: at the highest dose activity, positive = growth rescue; 330,000 tested, 0.19% active; AID 485353, 2010; note: 0% is about no effect; nearly all actives have a fitted effect of over 55% in size; growth read by luminescence after 48 h
Lassa entry inh = qHTS for Inhibitors of binding or entry into cells for Lassa Virus; Lassa virus pseudotype entry inhibition, cell reporter; control for the full effect not named in the record; 300,000 tested, 1.2% active; AID 540256, 2011; Potency, µM (top dose mostly 37.9 µM), for inactives: at the highest dose activity change, negative = inhibition, most hits filed as inhibitors; active means well fitted inhibition curve with a large enough effect; inconclusive means small, poorly fitted or top-dose-only effect, or effect the other way; inactive means flat fitted curve, though single readings scatter; tested in HEK293 cells; note: % is set by controls: 0 for no effect and ±100 for the full control effect; nearly all actives have a fitted effect of over 50% in size; luciferase read-out
An asterisk follows results filed as active; ? = inconclusive; · = no result given; & = joins results of further samples; [ ] = dose if it differs, or a comment. Unless noted, calls come from the whole dose curve; as a rule, active means well fitted rising curve with a large enough effect; inconclusive means small, poorly fitted or top-dose-only effect; inactive means no such curve, though single readings can be large or run the other way. Potency is the fitted concentration of half-maximal effect.

smiles | Cruzain inh noDet | RE007 growth inh | NS1 inh | StopGo reporter | Cruzain Triton | MARV entry inh | SARS PLP yeast | Lassa entry inh
Cn1cccc1-c1cc(C(=O)N2CCc3c([nH]c4ccccc34)C2c2ccccn2)[nH]n1 (stereo not drawn) | · | 10.7% | 21.8% | -17.0% | · | ? | -0.3% | -39.6%
Cc1ccc(NC(=O)Cc2n[nH]c(=O)c3ccccc23)cc1S(=O)(=O)N1CCCCCC1 | · | 9.1% | · | -13.6% | · | ? | -0.7% | ?
COc1ccc(S(=O)(=O)NCCCN2CCOCC2)c2ccccc12 | -11.2% | -15.4% | 3.8% | 61.1%[activator] | 6.4% | 20.7% | 3.7% | 10.8%
CCOC(=O)C1C(=O)CC(C)(O)C(C(=O)OCC)C1c1ccccc1 (stereo not drawn) | 34.0% | 4.3% | 12.1% | -17.6% | 1.6% | -12.3% | -6.3% | -1.7%
Cc1ccc(-c2nc3nc4ccccc4nc3n2Cc2ccco2)cc1 | ? | 3.8% | -9.2% | 5.0% | -8.8% | -16.3% | -2.2% | ?
COc1cc(C(CCN2CCOCC2)c2c(OC)cc(OC)c3c2OC(=O)CC3c2ccc(N(C)C)cc2)cc(OC)c1OC (stereo not drawn) | · | -16.7% | -27.4% | -10.6% | · | · | 1.3% | ·
Cc1nc(CCNS(=O)(=O)c2cccnc2)cs1 | · | 5.1% | -0.1% | -2.1% | · | · | -0.1% | ·
COc1ccc(CCNC(=O)c2ccc3ccccc3n2)cc1 | · | -20.5% | -31.6% | 46.2%[activator] | · | ? | -8.1% | ?
COCCNC(=O)Cn1cc2c(n1)-c1c(oc(C(=O)N3CCCC3)c1C)CC2 | 2.4% | · | · | -6.3% | -2.2% | · | · | 1.5%[46.1 µM]
CSc1nc2ccccc2n1CC(=O)Nc1c(C)cccc1C | 12.0% | 8.6% | 13.4% | 0.0% | 7.7% | -19.0% | 18.5% | -4.7%
CN(Cc1ccc(F)cc1)C(=O)CNC(=O)c1ccc2c(c1)OCO2 | · | 24.1% | · | 10.4% | · | -3.0% | 1.3% | 21.2%
OC(COC(c1ccc(Cl)cc1)c1ccc(Cl)cc1)CN1CCCC1 (stereo not drawn) | 3.1% | -7.3% | 7.0% | -16.4% | -0.2% | ? | · | ?
O=c1c(-c2nc3ccccc3s2)cccn1Cc1ccc(Cl)cc1 | 9.4% | 4.9% | 1.2% | 19.5% | 10.6% | 2.8% | 4.8% | 0.3%
Cc1ccc(Cn2nnc3c(=O)n(CC(=O)NCc4ccco4)cnc32)cc1 | -15.4% | 2.7% | 1.2% | -17.7% | -1.9% | -3.0% | -6.0% | ?
O=C(COC(=O)[C@H](Cc1ccccc1)NC(=O)c1cccs1)NC1CC1 | 14.5% | -1.8% | -0.1% | -6.3% | -0.4% | 2.2% | -2.2% | -9.5%
O=C1c2oc3ccccc3c(=O)c2C(c2ccccn2)N1Cc1ccccc1 (stereo not drawn) | -27.6% | 14.3% | 2.2% | 27.4% | 4.8% | ? | -3.5% | -14.9%
COc1cccc(-c2nc(CS(=O)(=O)CC(=O)NCc3ccccc3OC)c(C)o2)c1 | 6.8% | 13.9% | -53.4% | -24.5% | -9.3% | · | 0.9% | ·
CC(=O)NCc1nc2ccccc2n1Cc1ccccc1F | 9.1% | 1.3% | -3.1% | -4.7% | 2.3% | 4.9% | -6.6% | -17.6%
COc1ccc(/C=C2\Oc3cc(OCC(=O)N4CCC[C@H]4C(=O)O)ccc3C2=O)c(OC)c1 | · | -5.5% | ? | -15.1% | · | · | -2.8% | ·
O=C(O)/C=C\C(=O)Nc1ccc(N2CCN(c3ccc(F)cc3)CC2)cc1 | · | -18.4% | 5.8% | -12.5% | · | 17.5%[46.1 µM] | -2.0% | -24.9%[46.1 µM]
CN(c1ccccc1)S(=O)(=O)c1ccc(Cl)c(C(=O)OCC(=O)c2c(N)n(C)c(=O)n(C)c2=O)c1 | · | -1.3% | · | -20.6% | · | ? | · | -15.1%
O=C(CSc1ccc2nnc(-c3ccc(Cl)cc3)n2n1)N1CCCc2ccccc21 | ? | -7.5% | 6.0% | ? | 5.4% | -6.1% | -11.8% | 18.1%
Cc1cc(NC(=O)c2ccc(F)cc2F)n(-c2nc3ccccc3[nH]2)n1 | 20µM* | -1.2% | 2.2% | 30.2%[activator] | 3.9% | ? | 1.0% | 0.9%
[O-][n+]1onc2c3cc(-c4ccccc4)nnc3ccc21 | ? | 0.2% | -4.1% | 16.9% | 0.0% | -14.1% | -2.6% | -5.8%
COc1cc(/C=C/C(=O)OCC(=O)Nc2ccc(NC(C)=O)cc2)cc(S(=O)(=O)N2CCc3ccccc32)c1OC | · | 33.0% | · | 23.1% | · | ? | 1.9% | ?
CCCCCCc1ccc(-c2ncc(N)cn2)cc1 | ? | ? | -3.3% | 35.6%[activator] | -15.9% | -27.1% | -21.5% | 4.0%
O=c1cccc2n1CC1CNCC2C1 (stereo not drawn) | -4.7%&-2.7% | -21.0%[18.4 µM] | 12.7% | -14.7%&-9.1% | 2.5%&-1.2% | · | -1.8% | ·
O=C(CSc1nc(O)cc(=O)n1-c1ccccc1)Nc1ccccn1 | · | 14.3% | · | -5.5% | · | 23.6%[46.1 µM] | 0.7% | 26.7%[46.1 µM]
COc1ccc(/C=N/NC(=O)c2[nH]c3ccc(Cl)cc3c2-c2ccccc2)c(C(=O)O)c1OC | · | -4.2% | 21.6% | 2.7% | · | -29.4% | -0.1% | 1.7%
O=C(COC(=O)c1cc[n+]([O-])cc1)NCc1ccccc1Cl | · | 5.1% | · | 10.0% | · | -16.0%[46.1 µM] | -0.7% | ·
CC(=O)c1ccc(NC(=O)c2cn(-c3ccccc3)nc2-c2ccncc2)cc1 | -10.5% | 7.1% | 12.0% | -7.2% | 1.2% | ? | ? | ?
CC(C)CC(=O)O/N=C1\C(=O)N(c2ccccc2)c2ccccc21 | 2.51µM* | 0.0% | 3.3% | ? | 0.631µM* | ? | -1.1% | 1.1%
CCOC(=O)c1cc(C)[nH]c1C | · | -1.8% | 1.9% | 18.6% | · | 9.0%[46.1 µM] | 0.0% | 8.7%
COc1ccc(NC(C)=O)cc1NC(=O)CN1CCN(C(=O)c2ccco2)CC1 | -2.9% | -3.5% | -5.5% | -12.0% | 7.0% | 8.6% | -1.1% | -1.1%
CCOC(=O)c1ccc(Cn2c(-c3ccccc3)nnc2-c2ccccc2)o1 | 11.9% | 10.7% | -4.3% | -1.4% | -1.6% | ? | -12.6% | 6.9%
COc1cccc(CNC(=O)CCCn2ccc3cc(S(=O)(=O)N4CCCC4)ccc32)c1 | · | -3.0% | -5.5% | -13.6% | · | ? | -3.5% | ?
COC(=O)CN1C(=O)CSc2ccc(S(=O)(=O)Nc3ccc(Cl)cc3C)cc21 | 3.8% | · | · | -12.0% | -6.8% | · | · | 13.6%[46.1 µM]
Cc1ccc(/C=N\NC(=O)c2ccc3c(c2)OCO3)o1 | · | 11.6% | -16.9% | 47.3%[activator] | · | · | -2.1% | ·
COc1ccc(Br)cc1/C=N/NC(=O)CN1CCN(Cc2ccccc2)CC1 | · | 0.5% | 1.2% | -23.7% | · | ? | 1.4% | 15.9%[46.1 µM]
CCOC(=O)c1cc(C#N)c(SC)nc1-c1ccccc1 | -19.7% | 26.5% | -8.2% | ? | -6.5% | -2.1%[46.1 µM] | 1.6% | -24.1%
O=C(Nc1nnc(-c2ccccc2Cl)o1)c1nc2ccccc2s1 | 3.7% | -7.6% | -16.9% | 29.8% | -12.7% | · | -20.6% | ·
CC(Sc1nnc(COc2ccccc2)n1Cc1ccccc1)C(=O)O (stereo not drawn) | · | -6.2% | 2.3% | -18.3% | · | ? | 0.6% | 12.1%[46.1 µM]
Cc1cc(C)c(NC(=O)C(C)N2CCCCCC2)c(C)c1 (stereo not drawn) | · | -0.1% | -4.7% | 5.8% | · | · | 3.9% | ·
Cc1ccccc1CNC(=O)CN1CCSc2ccccc21 | 7.9% | · | · | 17.9% | -6.3% | · | · | 4.6%[46.1 µM]
CC(=O)Cc1cc(O)c2ccccc2c1OC(=O)c1ccccc1 | · | 3.2% | -4.7% | -15.8% | · | -19.2%[46.1 µM] | -0.9% | -25.5%[46.1 µM]
O=C(COC(=O)c1ccccc1SCC(=O)N1CCCC1)Nc1ccccc1C(F)(F)F | · | 2.3% | -3.0% | -8.7% | · | -7.3% | -0.5% | 1.2%
CC(C)CNC(=O)C1c2ccccc2Oc2ccccc21 | · | 1.4% | 1.8% | -4.8% | · | 1.7%[46.1 µM] | -0.8% | 13.9%
Fc1ccc2nc3n(c2c1F)CCCCCC3 | -5.0% | -1.1% | -15.0% | · | -0.1% | 22.2% | 7.9% | 13.6%
CCCn1c(=O)c2[nH]cnc2n(-c2ccccc2C)c1=O | · | -1.0% | 1.0% | -7.4% | · | 11.2% | 0.2% | ?
Cc1cccc(NC(=O)C2CCCN(C(=O)NCc3ccccc3)C2)c1C (stereo not drawn) | · | 5.2% | 0.2% | 7.8% | · | 9.1%[46.1 µM] | -1.9% | 0.1%
CC(C)NC(=O)C(=O)NC1CCCCCC1 | -10.5% | 13.3% | 1.5% | 19.7% | 4.3% | -16.5% | -2.8% | -2.3%
CCOC(=O)C(C(=O)N(C)Cc1ccccc1)C1CCCCC1 (stereo not drawn) | · | 2.5% | -25.4% | 6.0% | · | · | 1.6% | ·

Rows are unselected; 4.8% or so of the library scored in one or more.
